CapD inh: Bacillus anthracis CapD inhibitors, primary screen, biochemical, fluorescence intensity. purified CapD enzyme, fluorescence intensity read-out; hits give low values; some hits fall short of the stated cut. z-score (test concentration not listed). CapD gamma-glutamyltranspeptidase (Bacillus anthracis Ames Ancestor). 140,000 compounds, 0.23% hits. AID 492967, 2010;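 active = z-score under -4 in either of two replicates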;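 note: stock transfer was 100 nL into about 40 µL; score is relative to mean and spread of the plate; one replicate is shown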
AID504770: growth inhibition of E. coli YBA685, primary screen, V. cholerae RctB inhibitors | AID 504770, 2011 | 130,000 compounds, 0.27% hits | E. coli YBA685 rctB-dependent plasmid, OD600 growth, 3 h; hits give low values | z-score (concentration not given with the values);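 active = z-score under -2 on both plates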;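 note: wells of about 30 µL received 100 nL stock; score is relative to mean and SD of the test wells; the first replicate is given; strong numbers were not always called active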
* hit, by the source's call; . = not tested or not shown. An unsorted share of the library, and some 0.39% of all compounds hit somewhere here.

canonical_smiles	AID504770	CapD inh
CC1=CC(C)(C)SC(N)=N1	-1.4	.
CCCCc1ccc(C(=O)Nc2ccc(Sc3nc(C)cc(C)n3)cc2)cc1	.	-0.67
CCn1c2ccccc2c2cc(NC(=O)C3SC(=Nc4ccc(Cl)cc4)C(C(=O)NCc4ccco4)=C3N)ccc21 (configuration not stated)	-0.3	.
CC1CC(=O)Nc2ccccc2N1C(=O)c1ccc([N+](=O)[O-])cc1 (configuration not stated)	.	-0.45
O=c1c(=O)n2c(nn1CN1CCOCC1)sc1ccccc12	-1.2	0.42
FC(F)(F)c1cccc(Cn2cc(-c3ccc4ccccc4n3)cn2)c1	.	19
CC12c3ccccc3C(c3ccccc31)C1C(=O)N(c3ccccc3)C(=O)C12 (configuration not stated)	.	-0.07
CC1CCC(NCCc2ccc3c(c2)OCO3)CC1 (configuration not stated)	-1.1	.
CC1=C(c2ccc(C)cc2)S(=O)(=O)N=C1N1CCCCC1C (configuration not stated)	0.25	-1.6
O=C(OCC(F)(F)C(F)F)c1ccc(C(=O)OCC(F)(F)C(F)F)cc1	0.5	.
Cc1cc(Oc2ccc3oc4ccccc4c3c2)n2ncnc2n1	-0.35	.
O=C(O)c1ccc(=O)n(CCOc2ccccc2)n1	-1.3	.
CC(C)(CNC(=O)c1cn(-c2ccccc2)nc1-c1ccccc1)N1CCOCC1	-0.85	.
O=S(=O)(Nc1ccc(OC(F)(F)F)cc1)c1cccc2nsnc12	2.1	-0.99
COc1ccccc1OCCNC(=O)c1ccc2c3c(cccc13)CC2	-0.7	28
CN1C/C(=C/c2cccnc2)C(=O)/C(=C/c2cccnc2)C1	1.5	-0.98
CCOC(=O)c1c(C)[nH]c(C)c1S(=O)(=O)N1CCc2ccccc21	0.8	-0.035
CC(C)(C)c1ccc(C(=O)NN2C(=O)C3C4C=CC(CC4)C3C2=O)cc1 (configuration not stated)	.	-0.96
O=C(CSc1ncnc2sc(-c3ccccc3)cc12)c1ccc2c(c1)OCCO2	-0.45	3.6
O=C(Cc1ccc(Cl)cc1)NC1=NCCS1	-0.95	-1.5
O=C(CS(=O)(=O)c1nnnn1C1CCCCC1)Nc1ccc(F)cc1	0.85	0.57
Cc1ccccc1C1C=C(c2ccc(F)cc2)Nc2ncnn21 (configuration not stated)	-0.55	2.7
COC(OC)/C(C)=N/NC(N)=S	.	-3.5
COc1ccc(-n2ncc3c(Nc4ccc(Br)cc4)ncnc32)cc1	.	-0.1
O=C(CN1C(=O)CSCC1=O)Nc1ccccc1	-2.1	0.46
CCOc1ccccc1OCC(=O)N(C)Cc1ccc2c(c1)OCCO2	-0.05	.
COc1ccc(-c2n[nH]c(=S)n2Cc2ccccc2)cc1OC	0	1.2
CC1(C)Cc2c(sc(N)c2C(=O)O)CO1	-0.2	0.58
CN(Cc1ccccc1)C(=O)c1cn(C)c2ccc(S(=O)(=O)N3CCCC3)cc2c1=O	1.2	0.92
Cc1ccc(-n2cnc3ccccc3c2=O)cc1C	-0.65	.
O=c1[nH]c2nc3ccccc3n2c2ncccc12	-0.1	.
CSC1=NC(=Nc2cccc(C(F)(F)F)c2)C2(CCCCC2)N1c1cccc(C(F)(F)F)c1	.	-0.14
CC1(C)CC(=O)c2cc(OCC(=O)NCc3cccnc3)ccc2O1	-0.5	86
CCC(CC)C(=O)Nc1nonc1-c1ccccc1	-0.6	0.11
NC(=O)CNC(=O)COc1ccccc1	-0.2	0.045
CN(C)S(=O)(=O)c1ccc(C(=O)Nc2c3c(nn2-c2ccc(Cl)cc2)CS(=O)(=O)C3)cc1	.	0.45
Cc1c(C)c(C)c(CSC2=NCN(Cc3cccnc3)CN2)c(C)c1C	.	0.38
c1cc2c(cc1C1CCCCC1)c1c3n2CCNC3CCC1 (configuration not stated)	.	-0.005
COC1CC(O[C@@H]2[C@H](C)[C@H](OC3OC(C)CC(N(C)C)C3OC(C)=O)[C@H](C)CC3(CO3)C(=O)[C@@H](C)C(OC(C)=O)[C@H](C)[C@H](C)OC(=O)[C@@H]2C)OC(C)C1OC(C)=O (some centres not stated)	.	0.08
COC(=O)C1CCCc2c1[nH]c1ccc(Cl)cc21 (configuration not stated)	-0.45	.
Cc1oc(=O)c(NC(=O)c2ccccc2)cc1C(=O)c1ccccc1	-0.15	-0.02
N#C/C(=C\c1ccc(-c2cccc(C(=O)O)c2)o1)C(=O)NC1CCCCC1	-0.75	-2.2
O=c1ccccn1Cc1ccccc1F	-0.1	0.71
CCN1CCCC1CNS(=O)(=O)c1cc(-c2cc(C)no2)ccc1C (configuration not stated)	-0.85	1
CCCOC(=O)CSc1nc(C)cc(C)c1C#N	1.6	-0.93
Cc1ccc(Nc2nnc(C(C)(C)C)c(=O)[nH]2)c(C)c1	0.65	-0.23
CC1CCN(C(=O)c2ccccc2NC(=O)c2cccnc2)CC1	-0.85	-0.25
O=S(=O)(Oc1ccc(OCc2ccccc2)cc1)c1cc(Cl)cc(Cl)c1	.	0.85
Cc1ccc(C(=O)NCC(=O)OCc2ccc(Cl)c(Cl)c2)cc1	0.6	0.36
NC(=O)NC1CCS(=O)(=O)C1 (configuration not stated)	0.6	.

Continuation:
canonical_smiles	AID504770	CapD inh
CC(C)c1ccc(C=C2C(=O)NC(=O)NC2=O)cc1	-2.3	-0.63
CCc1ccc2[nH]c(=O)c(CNCCO)cc2c1	-2.5	.
CC(C)NC(=O)NNc1ccc(-c2csnn2)cc1	0.2	0.49
O=C(CSc1ccc(Br)cc1)NC1CCCC1	0.55	0.24
COCCOC(=O)C1=C(C)NC2=C(C(=O)CC(c3ccccc3)C2)C1c1cc2c(cc1Cl)OCO2 (configuration not stated)	.	1.9
Cc1occc1C(=O)NC1CCCc2ccccc21 (configuration not stated)	-1.1	-0.48
COC(=O)C1=C(C)N=c2s/c(=C3\C(=O)Nc4ccccc43)c(=O)n2C1c1ccccc1 (configuration not stated)	-0.7	.
CCN(CC)S(=O)(=O)c1cc(-c2n[nH]c(=O)c3ccccc23)ccc1C	.	0.04
COC(=O)c1cnn(-c2ccccc2)c1C=Nc1ccc(C)cc1	1.4	9.4
COc1ccccc1C(=O)OCC(=O)N(C)Cc1ccccc1	0.05	.
O=C(NCc1ccc(Cl)cc1)c1cccnc1SC(F)F	-0.3	.
CCCCNC(=O)C1CCCN(S(=O)(=O)c2c(C)noc2/C=C/c2cccs2)C1 (configuration not stated)	0.75	-0.82
Cc1nc2sccn2c(=O)c1S(=O)(=O)NCC(C)c1ccccc1 (configuration not stated)	-0.2	31
C=CCN(CC=C)C(=O)COc1ccc(Cl)cc1Cl	-0.15	.
O=[N+]([O-])c1ccc(Oc2c(Cl)cc(S(=O)(=O)N3CCOCC3)cc2Cl)c(Cl)c1	.	-0.3
O=C(C1=COCCO1)N1CCCc2ccccc21	0.2	0.45
O=C(COc1ccccc1)NCC(=O)N1CCCC1	-0.15	.
CCc1c(O)nc(SCc2ccc(F)cc2)[nH]c1=O	0.45	0.5
c1ccc(-c2oc3ncn4nc(-c5ccco5)nc4c3c2-c2ccccc2)cc1	.	4.7
c1ccc(N2CCN(c3nc4ccccc4[nH]3)CC2)nc1	-1.5	.

Single records (already shown):
Listed for `O=C(C1=COCCO1)N1CCCc2ccccc21` → AID504770: 0.2; CapD inh: 0.45
Listed for `O=C(NCc1ccc(Cl)cc1)c1cccnc1SC(F)F` → AID504770: -0.3; CapD inh: .

The listing continues:
canonical_smiles	AID504770	CapD inh
O=C(NCc1ccc(Cl)cc1Cl)c1cccnc1OCC(F)(F)F	1.1	0.11
COC(=O)c1ccccc1NC(=O)CSc1nc2ccc(OC)cc2[nH]1	.	0.7
Cc1cc(C)n2c(SCC(=O)O)nnc2n1	.	0.025
O=C(CSc1nnc2[nH]c(=O)ccn12)NCc1ccc2c(c1)OCO2	-1.2	.
CC(C)C(C)(C#N)NC(=O)CSc1nnc(-c2cccc(S(=O)(=O)N3CCOCC3)c2)n1-c1ccc(F)cc1 (configuration not stated)	-0.3	.
COc1ccc(CCn2c(C)cc(C(=O)CSc3nnnn3-c3ccccc3)c2C)cc1	-0.4	.
COC(=O)Cc1nc(N2CCN(c3ccc(OC)cc3)CC2)c2c(C)c(C)sc2n1	.	-0.27
O=C(CS(=O)(=O)c1ccc(F)cc1)Nc1ccc(Cl)cc1Cl	.	-0.42
CCOc1ccc(-c2cc(C(=O)OC)on2)cc1	-0.6	.
COc1cccc(OC)c1CN1CCC(NCCc2ccccc2)CC1	.	0.3
CCOC(=O)N1CCN(Cc2ccccn2)CC1	-0.3	.
CCOC(=O)c1ccc(NC(=O)c2cc3c(s2)CCC3)cc1	-0.65	0.54
CCOCC(=O)Nc1cc(Cl)c(NC(=O)COCC)c(Cl)c1	-0.95	-1.2
COc1ccc(OCC(O)Cn2c(N3CCCCCC3)nc3c2c(=O)n(C)c(=O)n3C)cc1 (configuration not stated)	.	-0.29
Cc1c(C)c(C)c(C(=O)c2c(Cl)c(Cl)c(Cl)c(Cl)c2C(=O)O)c(C)c1C	.	0.77
CCCn1c(SCC(=O)O)nc2ccccc21	.	0.54
Cc1nn(C)c(C)c1Sc1ccc(Br)cc1	0.15	0.44
COC(=O)c1scc2c(OC)cc(C(F)(F)F)nc12	2	20
CC(=O)N(Cc1ccccn1)Cc1ccco1	1.2	0.28
Cc1ccc(-c2nnc(N3CCN(C)CC3)c3ccccc23)cc1C	.	-0.33
CN(C)S(=O)(=O)N1CCN(Cc2ccccc2)CC1	-0.8	.
CCN(CC)CCNc1nc2c(c(=O)n(C)c(=O)n2C)n1Cc1ccc(Cl)cc1Cl	.	-0.36
Cc1cc(C)nc(OC(=O)c2ccc(Cl)cc2Cl)n1	-0.15	-3.4
O=S(=O)(NCCc1csc(-c2ccccc2)n1)c1ccccc1	-0.85	.
CCC(CO)Nc1ncnc2onc(-c3ccc(F)cc3)c12 (configuration not stated)	-1.5	0.96
COc1cccc(C2=NN3C(C2)c2cc(Cl)ccc2OC3c2ccc(SC)cc2)c1 (configuration not stated)	.	0.16
FC(F)(F)c1nc(Sc2nnc(C3CC3)o2)c2ccccc2n1	-0.05	.
C/C=C\C(=O)NCc1ccc2[nH]c(C)cc2c1	-0.9	-0.08
CCCCN1C2=NC(=O)CN2c2ccccc21	-0.95	0.4
CCOC(=O)N1CCN(C(=O)C(NC(=O)c2ccc(C34CC5CC(CC(C5)C3)C4)cc2)C(C)C)CC1 (configuration not stated)	1.4	-0.07
CCOC(=O)C1=C(S)N(C#N)C(=O)C(C#N)C12CCNCC2 (configuration not stated)	1.4	-1.3
NC(=O)C1CCN(Cc2nc3cc(Cl)ccc3c(=O)[nH]2)CC1	0.2	.
COCC(C)N=C1NC(=O)C(CC(=O)Nc2cc(C)c(Cl)cc2OC)S1 (configuration not stated)	0.8	.
N#CCSc1nc2ccccc2o1	1.1	-0.16
N#Cc1c(-c2ccccc2)cc(-c2ccccc2)c(C#N)c1N	1	21
Cc1nccn1C(C)CC(=O)O (configuration not stated)	0.3	-0.13
CCCCn1c(NN)nc2sc3c(c2c1=O)CCCC3	-0.05	8.7
CC(C)(C)NC(=O)Cn1nnc(-c2ccc(S(C)(=O)=O)cc2)n1	-0.25	0.03
Cc1cc(C)c(C#N)c(SCC(=O)NC2CCCCC2)n1	1.6	0.59
CCCN1CCC(N(C2CC2)S(=O)(=O)c2ccc([N+](=O)[O-])cc2)CC1	.	-0.59

Arranged by length of the SMILES (descending): some entries from above
canonical_smiles	AID504770	CapD inh
CC(C)(C)c1ccc(C(=O)NN2C(=O)C3C4C=CC(CC4)C3C2=O)cc1 (configuration not stated)	.	-0.96
CCc1ccc2[nH]c(=O)c(CNCCO)cc2c1	-2.5	.
O=C(CN1C(=O)CSCC1=O)Nc1ccccc1	-2.1	0.46

Next compounds
canonical_smiles	AID504770	CapD inh
COc1ccc(-c2nc3ccccc3c(=O)n2NC(=O)/C=C/c2ccc(Br)cc2)cc1OC	.	-0.86
CCN(CC)C1=CC2=CC(=C(C#N)C#N)CCC2CC1 (configuration not stated)	-1.6	.
Cn1c(=NC(=O)COc2ccccc2)sc2cccc(F)c21	-0.7	.
CC(C)C(NS(=O)(=O)c1ccc2c(c1)OCCO2)C(=O)OCc1nnc(-c2ccccc2)o1 (configuration not stated)	-0.3	.
c1ccc2c(c1)NC(c1ccc3c(c1)OCO3)S2 (configuration not stated)	-0.4	89
CNC(=O)N(O)C1N(/N=C/c2ccco2)C(=S)SC1(C)C (configuration not stated)	.	-1.1
Cn1c(N)c(C(=O)COC(=O)C2CCN(S(=O)(=O)c3cccs3)CC2)c(=O)n(C)c1=O	-0.6	.
CS(=O)(=O)c1ccccc1C(=O)Nc1ccc(C#N)cc1	-0.3	.
CCOC(=O)c1sc2ncnc(Nc3cc(Cl)ccc3OC)c2c1C	.	-0.65
CCCCNC(=O)c1cn(C)c2ccc(S(=O)(=O)N(CC)CC)cc2c1=O	0.8	-0.23
CC(C)CCSc1nc(N2CCOCC2)c2c(c1C#N)CC(C)(C)OC2	.	-0.22
CC(NC(=O)c1ccccc1)c1nc2ccccc2[nH]1 (configuration not stated)	-0.65	-0.005
COc1ccc2[nH]c(-c3ccccc3)cc2c1	2.2	85
O=C(O)CCc1ccccc1OC(=O)c1ccccc1	.	0.72
Cc1ccccc1NC(=O)c1ocnc1C	-0.05	0.075
O=C(CCCCl)Nc1ccccc1Cl	-0.1	-0.16
O=C(O)C1CCCN1C(=O)c1cncc(Br)c1 (configuration not stated)	-0.1	.

Assay outcomes from PubChem BioAssay.
